TRPML1 agonist = agonists of human TRPML1 channel | hit rate 0.12% among 410,000 | TRPML1-expressing cells, Ca2+ dye fluorescence, FDSS; host cell line not named in the record; reference of the full effect not given here | activation, % (test concentration not listed) | AID 624414 | Q9GZU1; in the data active = activation above about 50%; inconclusive = about 30% to 50%; inactive = below about 30%; also: 0% is about no effect; the text of the record puts the active cut at 80%
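TRPML1-DL cells, Tet-induced overnight (~16 h, 37 degrees C), loaded 45-90 min at room temperature with Ca8 no-wash calcium dye plus quencher. FDSS fluorescence: 10 s baseline, compound pin-transfer, 110 s agonist read, then EC80 54-4 (4uM final) and 110 s antagonist read.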
Six1-Eya2 blk = blocks human Six1 binding to Eya2; hit rate 0.56% among 360,000; AlphaScreen GST-Six1/His-Eya2 binding, biochemical; active compounds read low; control for the full effect not named in the record; AID 651725; Q15475+O00167; activity change, % (concentration not given with the values); in the data active = activity change below about -65%; inconclusive = about -30% to -65%; inactive = above about -30%; also: % is scaled to controls: 0 for no effect and ±100 for the full control effect
Target sequence (O00167 whole entry, looked up): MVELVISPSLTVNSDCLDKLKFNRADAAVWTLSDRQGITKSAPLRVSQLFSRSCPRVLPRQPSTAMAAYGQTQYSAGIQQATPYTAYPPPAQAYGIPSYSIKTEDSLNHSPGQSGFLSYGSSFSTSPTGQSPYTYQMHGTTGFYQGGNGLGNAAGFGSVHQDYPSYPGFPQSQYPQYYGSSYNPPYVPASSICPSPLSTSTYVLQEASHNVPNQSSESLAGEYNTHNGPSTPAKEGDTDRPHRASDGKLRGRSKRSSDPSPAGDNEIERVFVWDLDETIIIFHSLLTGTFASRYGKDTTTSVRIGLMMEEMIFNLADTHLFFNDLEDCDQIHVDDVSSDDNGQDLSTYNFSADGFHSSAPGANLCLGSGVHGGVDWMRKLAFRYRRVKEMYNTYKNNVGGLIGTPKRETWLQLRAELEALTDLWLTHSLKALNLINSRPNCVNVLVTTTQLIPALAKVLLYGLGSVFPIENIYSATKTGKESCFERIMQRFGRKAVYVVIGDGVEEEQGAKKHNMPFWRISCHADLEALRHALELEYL
Target sequence (Q15475 whole entry, looked up): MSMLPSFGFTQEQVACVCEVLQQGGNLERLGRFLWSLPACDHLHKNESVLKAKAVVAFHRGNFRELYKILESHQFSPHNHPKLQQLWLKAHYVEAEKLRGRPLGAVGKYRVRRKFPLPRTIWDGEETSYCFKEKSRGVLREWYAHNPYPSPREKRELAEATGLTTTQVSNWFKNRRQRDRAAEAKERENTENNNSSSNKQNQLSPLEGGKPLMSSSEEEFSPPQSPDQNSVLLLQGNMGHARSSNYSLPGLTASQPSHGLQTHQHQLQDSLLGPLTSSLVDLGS
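AlphaScreen with GST-Six1 and His-Eya2 (5X mix: 250 nM and 500 nM), glutathione donor and nickel acceptor beads; buffer 50 mM Tris pH 8.0, 300 mM NaCl, 1 mM TCEP; 1 h at 37 C in the dark.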
TRPML1 inh = human mucolipin-1 channel inhibition; Q9GZU1; TRPML1-inducible cells, Ca2+ dye fluorescence, FDSS; active compounds read low; inhibition of EC80 agonist-evoked calcium signal; activity change, negative = inhibition, % (test concentration not listed); hit rate 0.02% among 390,000; in the data active means activity change below about -50%; inconclusive means about -30% to -50%; inactive means above about -30%;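 also: stimulus is agonist 54-4 at its EC80 concentration; % is scaled to controls: 0 for no effect and ±100 for the full control effect; compound concentration not given in the record; the text of the record puts the active cut at -80%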
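Calcium fluorescence in TRPML1-DL cells induced overnight with Tet: a 110 s read after compound pin addition, then a 110 s antagonist read after challenge with 54-4 at 4 uM final (EC80).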
PINK1 expr mod = changes PINK1 expression; hit rate 0.2% among 410,000; PINK1 immunofluorescence, high-content cytometry, 24 h; Potency, µM (highest dose often 76.6 µM), without a hit: top-dose activation (PINK1 increase), usual class: activators; active = well fitted activation curve with a large enough effect; inconclusive = small, poorly fitted or top-dose-only effect; inactive = flat fitted curve, though single readings scatter; cell line not stated here;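 also: potency is read from the fitted curve at half-maximal effect; % of control where 0% means no effect; nearly all actives have a fitted effect of over 65% in size; a mitochondrial uncoupler was the plate control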
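Compound titrations (5 concentrations, 24 h) on a stable cell line; DMSO and CCCP controls. Endpoint: fixed-cell PINK1 immunofluorescence with mitochondrial, cell and nuclear markers, scanned by microplate cytometer.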
D2 ag = human D2 receptor agonism in beta-arrestin assay. activation, % (test concentration not listed). DiscoveRx PathHunter D2 beta-arrestin, luminescence, 90 min; 100% = 57 uM dopamine signal. hit rate 0.084% among 360,000. AID 624465. P14416; in the data active = activation above about 40%; inconclusive = about 15% to 40%; inactive = below about 15%; also: compound concentration not given in the record; the text of the record calls up to 30% inactive
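Agonist mode: compounds alone added to overnight-plated D2 PathHunter cells for 90 min at 37 C, with 57 uM final dopamine (EC100) defining full response. Beta-arrestin recruitment detected by chemiluminescent reagent, read after 1 h at ambient temperature.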
D2 PAM = positive allosteric modulators of human D2 dopamine receptor | P14416 | hit rate 0.23% among 360,000 | DiscoveRx D2 beta-arrestin cells, luminescence, 90 min; 100% = 57 uM dopamine signal | potentiation, % (concentration not given with the values); active = potentiation of 50% or more; inconclusive = 30% to 50%; inactive = 30% or less;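 also: compound concentration not given in the record; tested on top of an EC20 dose of dopamine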
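D2 cells co-treated with compound plus 50 nM dopamine (EC20) for 90 min at 37 deg C to detect potentiation. Beta-arrestin recruitment was read as enzyme-fragment luminescence after 1 h at ambient temperature. Full response was set by 57 uM dopamine.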
* marks the source's active call; other numbers are inactive results; ? = inconclusive; . = not tested or not shown; & = joins results of further samples; [ ] = dose if it differs, or a comment. Rows were taken by chance; about 1% have a hit in one of these screens.

Labels used below: A = TRPML1 agonist; B = Six1-Eya2 blk; C = TRPML1 inh; D = PINK1 expr mod; E = D2 ag; F = D2 PAM
COc1ccc(NC(=O)Nc2cccc3c2O[C@H](CN(C)C(=O)Nc2ccc4c(c2)OCO4)[C@@H](C)CN([C@H](C)CO)C3=O)cc1
  A = 0.3	B = -10	C = 8	D = 1.3%	E = ?	F = 16

CCOc1ccc(N2CC(C(=O)NCc3ccc4c(c3)OCO4)CC2=O)cc1 (stereo not given)
  A = 0.0	B = -1	C = 13	D = 0.2%	E = -4.0	F = -16

CCNC(=O)C1(C)CCN(C(=O)c2ccc3c(c2)OCO3)C1 (stereo not given)
  A = -0.4	B = 6	C = .	D = 1.3%	E = -4.7	F = 0

O=C(Nc1ccc(Oc2ccccc2)nc1)C1CCCCN1Cc1cccc(O)c1 (stereo not given)
  A = -0.4	B = -8	C = -10	D = 3.8%	E = 0.6	F = 12

CCOC(=O)C(CC)Sc1ccc2nnc(-c3cccnc3)n2n1 (stereo not given)
  A = -1.1&-0.1	B = -6	C = -6	D = -1.0%&-1.2%	E = -2.0	F = -5

COc1ccc(C2CC(c3ccccc3)=NN2C(=O)COC(=O)c2cnc(Cl)c(Cl)c2)cc1 (stereo not given)
  A = 2.1	B = -1	C = -7	D = 1.9%	E = -1.3	F = -13

CC(C)CC(C(=O)NCc1ccccn1)N1C(=O)c2ccccc2C1=O (stereo not given)
  A = 1.0	B = -1	C = -22	D = 0.7%	E = -2.7	F = 6

O=C(C1=C(O)C(=O)N(c2ncccn2)C1c1cccs1)c1ccco1 (stereo not given)
  A = 1.8	B = -2	C = 25	D = 12%[38.3 µM]	E = -0.5	F = -9

CC(=O)N1CCc2c(sc(NC(=O)c3ccc(S(=O)(=O)N(C)C)cc3)c2C#N)C1
  A = -0.5	B = 5	C = 11	D = 0.6%	E = -1.8	F = -3

CCO[C@@H]1OC(C(=O)Nc2ccccc2)=C[C@H](c2coc3ccccc3c2=O)[C@H]1CCCO
  A = -0.9	B = 1	C = -13	D = 6.2%	E = 2.1	F = -4

O=C1c2ccccc2C(=O)N1CCC1(O)C(c2ccccc2)=Nc2ccccc21 (stereo not given)
  A = -0.6	B = 2	C = -4	D = -0.4%	E = 3.9	F = .

Cc1cccc(C)c1OCC(=O)NCC1(N2CCOCC2)CCCCC1
  A = 29	B = .	C = -8	D = -0.8%	E = .	F = .

O=C(CC(Nc1ccccc1Cl)C(=O)OCC(=O)c1cccs1)c1ccccc1 (stereo not given)
  A = 2.7	B = 0	C = 35	D = .	E = -3.1	F = -11

Clc1cccc(CN2CCc3c([nH]c4ccccc34)C2)c1
  A = 1.0	B = -26	C = 85	D = -1.0%	E = 2.5	F = -25

COc1ccccc1C(=O)Nc1nc2ccc(S(=O)(=O)N3CCCC3)cc2s1
  A = -0.3	B = .	C = 6	D = 0.3%	E = .	F = .

Cc1ccc(/C=N/NC(=O)C[n+]2ccccc2)s1
  A = 1.2	B = ?	C = 23	D = 0.4%	E = 3.6	F = -3

C/C(=N/N1CCN(Cc2cccc3ccccc23)CC1)c1cccnc1
  A = -0.2	B = -7	C = -4	D = -0.8%	E = -3.4	F = -13

O=C(CCN1C(=O)c2ccccc2C1=O)N1CCC(c2ccccc2)C1 (stereo not given)
  A = -0.7	B = -1	C = 0	D = 9.8%[38.3 µM]	E = -3.9	F = -11

CC[C@H](C)[C@@H](CN[C@H](CCCCNC)CNC)NCC1CCCC1
  A = 0.5	B = 4	C = -5	D = -0.1%	E = -2.9	F = -4

O=S(=O)(c1ccc(Oc2ccccc2)cc1)N1CCOCC1
  A = 3.6	B = 10	C = 7	D = -4.4%[38.3 µM]	E = 0.4	F = -3

C[C@H](CO)N1C[C@H](C)[C@H](CN(C)C(=O)Nc2ccc(C(C)(C)C)cc2)OCc2cnnn2CCCC1=O
  A = -0.5	B = 12	C = -7	D = -1.3%	E = 0.9	F = 0

Fc1c(CSC(=S)N2CCOCC2)cccc1CSC(=S)N1CCOCC1
  A = -0.4	B = 3	C = 87	D = 0.7%	E = -6.7	F = -30

COc1ccc(C(=O)OCCN=C2NS(=O)(=O)c3ccccc32)cc1OC
  A = -0.6	B = 0	C = -7	D = 7.2%[38.3 µM]	E = 1.5	F = 1

Cc1cc([N+](=O)[O-])nn1Cc1ccc(C(=O)N/N=C/c2ccc(N(C)C)cc2)cc1
  A = -0.3	B = -14	C = 29	D = 2.2%	E = -1.4	F = -5

Cn1c(SCC(=O)N2CCCc3ccccc32)ncc(C(=O)Nc2ccccc2)c1=O
  A = 1.6	B = .	C = 49	D = 2.5%	E = .	F = .

CCOC(=O)Cc1c[nH]c2ccc([N+](=O)[O-])cc12
  A = 2.7	B = -19	C = 11	D = 1.4%	E = -1.6	F = -1

CS(=O)(=O)Nc1ccc(-c2cnc3cccnn23)cc1
  A = -0.7	B = 2	C = .	D = -0.8%	E = 3.9	F = -3

Cc1ccc2[nH]c(=O)c(COC(=O)C3CCCO3)cc2c1 (stereo not given)
  A = 0.6	B = 5	C = -19	D = -2.5%	E = -2.2	F = -7

CCN(CC)S(=O)(=O)c1ccc(NC(=O)CN(c2ccc(OC)cc2OC)S(C)(=O)=O)cc1
  A = -0.5	B = -1	C = 9	D = 0.1%	E = 1.6	F = -15

O=C(CCN1CCOCC1)NC12CC3CC(CC(C3)C1)C2
  A = 3.5	B = -1	C = 11	D = -0.3%	E = -0.5	F = -9

COc1cccc(NC(=O)CSc2nc3c(c(=O)n2C)SC(C)C3)c1 (stereo not given)
  A = -1.4	B = -11	C = 0	D = 1.8%	E = 5.1	F = 2

CC1CCCCN1C(=O)CSc1nnc(Cc2ccccc2)n1C (stereo not given)
  A = -1.1	B = -2	C = 5	D = 1.3%	E = -2.8	F = 0

CCN(Cc1ccccc1)C(=O)Cn1c(=O)oc2cc(S(=O)(=O)N3CCCCCC3)ccc21
  A = 2.1	B = .	C = -22	D = 2.0%	E = .	F = .

CCn1cc(C(=O)N2CCCC2)c(=O)c2cc(S(=O)(=O)N(C)C)ccc21
  A = 0.2	B = 10	C = 2	D = -0.7%	E = -5.5	F = -6

O=c1c(-c2ccc(O)cc2)coc2cc(O)cc(O)c12
  A = .	B = 1	C = .	D = 1.7%	E = -3.6	F = -19

CC[n+]1c(/C=C2/C=C(C)CC(C)(C)C2)sc2ccc(OC)cc21
  A = -0.4	B = -17	C = 11	D = ?	E = -0.9	F = -22

O=C(c1cccc(S(=O)(=O)N2CCN(c3ccc(F)cc3)CC2)c1)N1CCN(c2ccccc2O)CC1
  A = -0.7	B = -16	C = 10	D = 1.6%	E = 5.4	F = -2

CC(OC(=O)CC1CCCCC1)C(=O)Nc1ccc(F)cc1 (stereo not given)
  A = 1.2	B = 12	C = 18	D = 4.7%	E = -2.5	F = -5

Cn1c(SCc2nnc(-c3ccccc3)o2)nc2ccccc21
  A = 0.7	B = -2	C = 22	D = 2.0%	E = 0.5	F = -9

COC(=O)CCc1c(C)c(C(=O)c2ccco2)c2ccccn12
  A = -0.2	B = -22	C = -8	D = -1.4%	E = 0.5	F = -24

COc1ccc(S(=O)(=O)N2CCC(N3CCN(Cc4ccccc4)CC3)CC2)cc1
  A = 0.6	B = 1	C = -19	D = 0.5%	E = 14	F = -2

Cc1cc(SC#N)cc(C)c1NC(=O)CCl
  A = 1.1	B = -20	C = -2	D = 0.2%	E = -11	F = -7

Fc1ccc(Cn2cc(C(=S)N3CCOCC3)c3ccccc32)cc1
  A = 0.6	B = -1	C = -3	D = 0.9%	E = 0.4	F = -3

O=C(c1ccc(Br)cc1)N1CCCC(c2nc(-c3cccs3)no2)C1 (stereo not given)
  A = 0.1	B = 1	C = 14	D = 0.8%	E = -3.0	F = -6

CC(=O)N1CCCc2cc(S(=O)(=O)NCCC3=CCCCC3)ccc21
  A = -1.0	B = 1	C = 0	D = -0.5%	E = -0.5	F = -21

c1coc(Cn2c(-c3ccco3)nc3ccccc32)c1
  A = -0.4	B = -30	C = 3	D = 0.5%	E = -8.9	F = -7

O=C(O)c1cc2ccccc2cc1Nc1ccccc1
  A = 1.2	B = -4	C = -6	D = 4.6%	E = -2.9	F = -1

CC(C)CN1CCc2nc(Nc3ccc(F)cc3F)ncc2C1
  A = 1.9	B = .	C = 29	D = 1.8%	E = .	F = .

CC(=O)Nc1cc(-c2ccccc2)nn1Cc1cccc(Cl)c1
  A = -0.2	B = .	C = -6	D = 0.6%	E = .	F = .

COc1ccc(Cc2nnc(Nc3ccc(C)cc3)o2)cc1OC
  A = 1.4	B = 3	C = 30	D = -0.7%	E = 4.9	F = -10

Reprinted from the listing (5 entries):
Labels used below: A = TRPML1 agonist; B = Six1-Eya2 blk; C = TRPML1 inh; D = PINK1 expr mod; E = D2 ag; F = D2 PAM
CCOC(=O)Cc1c[nH]c2ccc([N+](=O)[O-])cc12
  A = 2.7	B = -19	C = 11	D = 1.4%	E = -1.6	F = -1

CS(=O)(=O)Nc1ccc(-c2cnc3cccnn23)cc1
  A = -0.7	B = 2	C = .	D = -0.8%	E = 3.9	F = -3

Cc1ccc2[nH]c(=O)c(COC(=O)C3CCCO3)cc2c1 (stereo not given)
  A = 0.6	B = 5	C = -19	D = -2.5%	E = -2.2	F = -7

CCN(CC)S(=O)(=O)c1ccc(NC(=O)CN(c2ccc(OC)cc2OC)S(C)(=O)=O)cc1
  A = -0.5	B = -1	C = 9	D = 0.1%	E = 1.6	F = -15

O=C(CCN1CCOCC1)NC12CC3CC(CC(C3)C1)C2
  A = 3.5	B = -1	C = 11	D = -0.3%	E = -0.5	F = -9

(continued)
Labels used below: A = TRPML1 agonist; B = Six1-Eya2 blk; C = TRPML1 inh; D = PINK1 expr mod; E = D2 ag; F = D2 PAM
O=C(CSc1ncccn1)NCc1ccccc1
  A = 0.0	B = 4	C = 0	D = -1.2%	E = -1.8	F = 3

O=S(=O)(Cc1ccccc1)N=Nc1c(O)[nH]c2ccc(Br)cc12
  A = -0.4	B = 17	C = -12	D = 2.8%	E = -17	F = -36

COC(=O)c1ccc(CCc2cc(O)c(Br)cc2O)cc1
  A = 2.7	B = -19	C = -3	D = ?	E = ?	F = 27

Cc1ccc(N(CC(=O)Nc2ccc(F)cc2)S(=O)(=O)N2CCCC2)cc1
  A = 0.8	B = -2	C = 4	D = 0.4%	E = -6.6	F = -3

COC(=O)[C@@H]1C[C@@]2(O)[C@H](O)[C@H](O)[C@H](O)C[C@H]2N1Cc1ccc(-c2ccccc2)cc1
  A = -1.0	B = 1	C = 24	D = -1.6%	E = 0.6	F = -5

Cc1ccc(C(=O)OCC(=O)Nc2ncc(C(F)(F)F)cc2Cl)cc1NC(=O)c1ccco1
  A = -0.7	B = -2	C = 6	D = 28%[38.3 µM]	E = -1.7	F = -3

CC(C)n1c(N2CCN(C(=O)Nc3ccc(F)cc3F)CC2)nc2ccccc21
  A = -0.4	B = 2	C = -3	D = 0.4%	E = -1.3	F = -4

Cc1ccc(NC(=O)c2cc(-c3ccc(C)c(C)c3O)n[nH]2)cc1C
  A = -0.1	B = -23	C = -13	D = 11%	E = -0.3	F = -4

COCCN(Cc1ccc(C)cc1)C(=O)[C@H]1O[C@@H](n2cnc3c(N)ncnc32)[C@H](O)[C@@H]1O
  A = -0.1	B = 1	C = 29	D = 1.2%	E = 1.4	F = -2

Source: PubChem
